# Vaccinia Venus: qHTS for Stage-Specific Inhibitors of Vaccinia Orthopoxvirus: Venus Reporter Primary qHTS; Vaccinia virus Venus reporter expression, fluorescence; Potency, µM (doses to about 36.5 µM), for inactives: at the top dose activity change, negative = inhibition, actives largely listed as inhibitors; hit rate 0.46% among 330,000; AID 720580, 2013; active means well fitted inhibition curve with a large enough effect; inconclusive means small, poorly fitted or top-dose-only effect; inactive means no such curve, though single readings can be large or run the other way; tested in A549 cells; also: nearly all actives have a fitted effect of over 30% in size; inactives centre near -10
# Vaccinia mCherry: qHTS for Stage-Specific Inhibitors of Vaccinia Orthopoxvirus: mCherry Reporter Primary qHTS; AID 720579, 2013; Potency, µM (highest dose often 36.5 µM), for inactives: top-dose activity change, negative = inhibition, hits mostly inhibitors; hit rate 0.63% among 310,000; Vaccinia virus mCherry reporter infection, fluorescence; about a quarter of the inactives have no number; active = well fitted inhibition curve with a large enough effect; inconclusive = small, poorly fitted or top-dose-only effect; inactive = no such curve, though single readings can be large or run the other way; tested in A549 cells; also: nearly all actives have a fitted effect of over 35% in size; inactives centre near -10
# Numbers without * were called inactive; i = inactive; ? = inconclusive; / = no result given; & = joins results of further samples; [ ] = remark or other dose. % is scaled to controls: 0 for no effect and ±100 for the full control effect; potency is read from the fitted curve at half-maximal effect.
Compound	Vaccinia Venus	Vaccinia mCherry
CC(C)c1ccc(C2(O)C(=O)Nc3cc(Br)ccc32)c(O)c1 (stereo not drawn)	-29.8%	-22.4%
c1ccc(COc2ccccc2CNC2CCCC2)cc1	-6.1%	-2.7%
COc1ccccc1NCC(O)COc1ccc(C(C)(C)C)cc1 (stereo not drawn)	-24.8%	-20.9%
COc1ccc(N2CCN(C(=O)c3nn(-c4ccc(C)cc4)c(=O)n(C)c3=O)CC2)cc1	-23.8%	-11.0%
COC(=O)[C@H](C)NC(=O)NCc1ccccc1	-6.9%[7.34 µM]	-4.3%[7.34 µM]
COCCNC(=O)C1(C)CCN(C(=O)Cc2ccc(OC)c(OC)c2)C1 (stereo not drawn)	10.5%	26.3%
CC(C)CCNC(=O)CN(Cc1ccco1)C(=O)c1snc(C(N)=O)c1N	-12.5%	2.4%
Cc1[nH]nc(SCC(=O)NCc2ccc(Cl)cc2)c1[N+](=O)[O-]	-6.3%	i
O=C(CN1CCN(c2ccccc2)CC1)Nc1cccc([N+](=O)[O-])c1	-14.0%	-18.0%
CS(=O)(=O)c1ccc(C(=O)Nc2ccccc2N2CCOCC2)c(Cl)c1	-2.4%	i
CC1CCc2nc(/C(C#N)=C/c3ccncc3)sc2C1 (stereo not drawn)	0.0%	-2.8%
CCOc1ccc(CCN2C(=S)N([C@@H](Cc3ccc(O)cc3)CN3CCC[C@@H]3CN3C(=S)NC[C@@H]3CC(C)C)C[C@@H]2Cc2ccccc2)cc1	-24.6%	-16.8%
COc1ccccc1NS(=O)(=O)c1cc(NC(=O)CCc2nc3ccccc3c(=O)[nH]2)ccc1C	-15.4%	-28.5%
COc1ccc(C2C(C(N)=O)=C(C)Nc3nc(CCCO)nn32)c(OC)c1 (stereo not drawn)	-3.5%	8.6%
COc1ccc(OC)c(NCc2nnc(-c3ccccc3)o2)c1	-1.5%	?
CCCN1C(=O)/C(=C/c2ccc(OCc3ccc(C(=O)O)cc3)c(OC)c2)NC1=S	0.0%	i
COc1ccc(-c2cn(CCO)c(-c3ccc(Cl)nc3)n2)cc1	-17.4%	-6.9%
CSc1ccc(CN2CCc3c([nH]c4ccccc34)C2)cc1	-19.8%	-0.5%
CC(=O)N1c2ccc3ccccc3c2C(C)CC12CCCCC2 (stereo not drawn)	-7.9%	/
CC12CCC(C(=O)N(NC(=O)c3ccc(O)cc3)C1=O)C2(C)C (stereo not drawn)	-8.8%	-9.9%
Cc1ccc(S(=O)(=O)N2CCC(C(=O)NC3CC(C)(C)NC(C)(C)C3)CC2)cc1C	-11.6%	i
CCc1nnc(NC(=O)CCc2c[nH]c3ccccc23)s1	-6.1%	-10.5%
N#Cc1nccnc1N1CCN(C(=O)Nc2ccccc2)CC1	-14.6%	-12.6%
COc1cc(NC(=O)C2CC2)c(OC)cc1NC(=O)CCC(=O)NC1CCN(Cc2ccccc2)CC1	-10.1%	-5.2%
COc1cccc(NC(=S)NC2CC(C)CC(C)(C)C2)c1 (stereo not drawn)	-19.9%	?

# Gathered by group, the compounds so far with a nitro group on carbon (2)
Compound	Vaccinia Venus	Vaccinia mCherry
Cc1[nH]nc(SCC(=O)NCc2ccc(Cl)cc2)c1[N+](=O)[O-]	-6.3%	i
O=C(CN1CCN(c2ccccc2)CC1)Nc1cccc([N+](=O)[O-])c1	-14.0%	-18.0%

# Continuation.
Compound	Vaccinia Venus	Vaccinia mCherry
CCOCCCNC(=O)C1CCC(CNS(=O)(=O)c2ccc(Cl)cc2)CC1 (stereo not drawn)	-12.9%	-11.1%
CCC(CC)C(=O)N1CCN(Cc2nc3ccccc3c(=O)[nH]2)CC1	-6.6%	-4.2%
Cc1n[nH]c(=O)c2c(NC(=O)CSc3nc4ccccc4c(=O)n3CCCO)oc(C)c12	-4.2%	-12.7%
Oc1ccccc1CNc1cnc2ccccc2c1	-19.7%	-28.2%
Cc1ccc(NC(=O)CN2C(=O)C(C)(C)c3ccccc32)cc1	-5.0%	-10.9%
CC(C)CC(CO)N1CCN(C(=O)c2ccccc2)CCC1=O (stereo not drawn)	-1.0%	i
ClC1(Cl)CC1Cn1cnc2ccccc21 (stereo not drawn)	-9.5%	-12.5%
Cc1ccc(S(=O)(=O)Nc2ccc3c(c2)C(=O)N([C@@H](C)CO)C[C@@H](C)[C@@H](CN(C)CC2CC2)OCCCC[C@@H](C)O3)cc1	-17.0%	-6.8%
CCc1ccc(NC(=O)C(NS(=O)(=O)c2cccc3nsnc23)c2ccccc2)cc1 (stereo not drawn)	-13.7%&-16.4%	-14.0%&-20.0%
CC(=O)OC1CC(OC2C(O)CC(OC3C(O)CC(OC4CCC5(C)C(CCC6C5CC(O)C5(C)C(C7=CC(=O)OC7)CCC65O)C4)OC3C)OC2C)OC(C)C1OC1OC(CO)C(O)C(O)C1O (stereo not drawn)	0.891µM*	2.51µM*
C#CCOCCOCCOCCNc1nc(N2CCN(C(=O)[C@H](CCCCN)n3cc([C@@H](N)[C@H](C)CC)nn3)CC2)nc(N2CCN(C(=O)[C@H](CCCCN)n3cc([C@@H](N)CC(N)=O)nn3)CC2)n1	-1.0%	i
CSc1ccccc1NC(=O)CSCc1nc2sc(C)c(C)c2c(=O)[nH]1	2.6%	-3.9%
CCCCN(CCCC)Cc1cc(=O)oc2cc(C)c(Cl)cc12	1.6%	10.1%
O=C(/C=C1\SC(=O)N(CC(=O)Nc2ccc(F)cc2)C1=O)Nc1ccc(Cl)cc1	-6.0%	-13.7%
COc1ccc(C(=O)CSc2nnc3ccc(-c4ccccn4)nn23)cc1	-4.8%	-1.8%
O=C(O)c1cc2cc(F)ccc2[nH]1	-12.2%&0.0%	-16.6%
COc1ccc(N2CCN(C(=O)CSc3nnc4c5cc(C)ccc5n(C)c4n3)CC2)cc1	-17.1%	-7.3%
CC1(C)Oc2ccc3ccc(=O)oc3c2C[C@H]1O[C@@H]1O[C@H](CO)[C@@H](O)[C@H](O)[C@H]1O	-2.1%	i
c1ncc2snnc2n1	-15.4%	-21.5%
N#Cc1c(N)n(CCc2ccc(F)cc2)c2nc3ccccc3nc12	-17.1%	/
CCCCCCCCCC[Si](C)(C)CCC(=O)N[C@@H](Cc1ccc(C)cc1)c1ccccc1	-12.6%	-1.3%
O=C(N/N=C/c1c[nH]c2ccccc12)c1cc(-c2cccc3ccccc23)n[nH]1	?	-23.0%
CC(C)(C)c1nnc(N/N=C/c2cc(Br)ccc2O)n(N)c1=O	?	2.51µM*
Cc1ccc(-n2nc3c(c2NC(=O)C(C)(C)C)CSC3)c(C)c1	-7.6%	-14.4%
O=C(CCCOc1ccc(Cl)cc1Cl)N1CCN(c2ccccn2)CC1	-9.7%	-2.4%

# More entries:
Compound	Vaccinia Venus	Vaccinia mCherry
COc1cc(CNC(=O)c2nc(Cn3nc(C)c(Br)c3C)no2)cc(OC)c1	-19.0%	-7.6%
O=C(CCNS(=O)(=O)c1ccccc1C(F)(F)F)NNC(=O)c1csc(N2CCOCC2)n1	-2.7%	i
CSCCC(NC(=O)c1cccc([N+](=O)[O-])c1)c1nc2ccccc2[nH]1 (stereo not drawn)	8.4%	-27.0%
CCC1Sc2ccc(S(=O)(=O)CCC(=O)Nc3ccc(NC(C)=O)cc3)cc2NC1=O (stereo not drawn)	-3.2%	-2.8%
COc1ccccc1NS(=O)(=O)c1ccc(O)c(C(N)=O)c1	-4.7%	i
COc1ccc(CC(=O)NNS(=O)(=O)c2ccc(F)cc2)cc1	2.7%	-2.0%
COc1ccc(N(C(=O)CNC(=O)c2cccs2)C(C(=O)NCC2CCCO2)c2ccccc2)cc1OC (stereo not drawn)	-6.7%	-12.5%
C#CCN1CCN(c2ccc(F)cc2)CC1	-24.9%	i
Cn1c(C(=O)N2CCCC(C(=O)c3ccc(C(F)(F)F)cc3)C2)cc(=O)n(C)c1=O (stereo not drawn)	-4.6%	i
COc1cc(OC)c2c(C)cc(=O)oc2c1	5.6%	/
O=C(C[C@@H]1C/C=C/CC[C@@H](Cc2ccc(F)cc2)C(=O)OCCNC1=O)N[C@H](CO)Cc1ccccc1	?	i
CC(C)[C@@H]1Cc2[nH][nH]c(=O)c2[C@H](CCc2ccccc2)O1	-5.4%	i
C[C@H](NC(=O)C1CCN(S(=O)(=O)c2ccccc2)CC1)C(=O)NCc1cccc(C(F)(F)F)c1	-4.9%	-19.4%
O=C(NCc1nnc(SCC(=O)N2CCCCC2)o1)c1ccc(F)cc1	-5.9%	-12.5%
COC(=O)Nc1nc(Sc2ncc(C(F)(F)F)cc2Cl)n[nH]1	-20.4%	-11.6%
O=C(CSc1c(Cl)cccc1Cl)NC1CCCc2ccccc21 (stereo not drawn)	-9.2%	i
Nc1nnc(CC(=O)N/N=C/c2cccc(OCCOc3ccccc3)c2)s1	-5.1%	/
CC(=O)OCC(=O)[C@@]1(O)CCC2C3CCC4=CC(=O)CC[C@]4(C)C3C(O)C[C@]21C (stereo partly drawn)	-8.3%	-13.7%
CN(C)CCCNc1nc2cc(-c3cccc(Cl)c3)sc2c(=O)n1C	?	13.0%
CC(=O)N1CCN(C(=S)NCCc2ccccc2)CC1	1.4%	i
O=C(CCNc1n[nH]c(=O)[nH]c1=O)N/N=C/c1ccccc1Br	-1.0%	4.7%
Cc1cc(C)nc(N(C#N)CC(=O)c2ccccc2)n1	?	?
O=C(NC(=S)Nc1nc2c(ccc3ccccc32)s1)c1cccs1	-8.7%	i
CCc1cccc(NC(=O)c2cn3c4c(ccc(Cl)c4c2=O)OC(C)C3)c1 (stereo not drawn)	-10.1%	-3.0%
CN(C)C(=O)CCc1ccc2c3c([nH]c2c1)[C@]1(C)[C@@H](C(=O)N2CCCCC2)C[C@H](CC(=O)NC(C)(C)C)C(=O)N1CC3	-15.3%	-1.9%

# Three records picked at random from those above, as already listed:
Compound	Vaccinia Venus	Vaccinia mCherry
COC(=O)Nc1nc(Sc2ncc(C(F)(F)F)cc2Cl)n[nH]1	-20.4%	-11.6%
CN(C)CCCNc1nc2cc(-c3cccc(Cl)c3)sc2c(=O)n1C	?	13.0%
C#CCN1CCN(c2ccc(F)cc2)CC1	-24.9%	i

# Later entries
Compound	Vaccinia Venus	Vaccinia mCherry
CCCSc1nnc(Nc2ccccc2C)s1	-5.1%	-19.7%
COc1cc(NC(=S)NCc2cccnc2)cc(OC)c1OC	2.3%	-4.3%
Cn1cnc2ncnc(Oc3ccc(Br)cc3)c21	-12.9%	-2.0%
Cc1cc(C(=O)NCCC(C)C)c2ccccc2n1	2.3%	?
COc1cccc(C(=O)c2c(N)c(-c3nc(-c4ccccc4)cs3)c3ccccn23)c1	?	?
O=C(C1CC(=O)N(c2ccccc2)C1)N1CCN(c2ccc(F)cc2)CC1 (stereo not drawn)	-18.0%	i
COc1ccc(-c2csc(N3CCN(c4cc5c(cc4Cl)nc(-c4ccncc4)n5CCOCCO)CC3)n2)cc1	-27.2%	?
Cc1ccc(C(C)C)c(OCC(O)CN(C)Cc2ccccc2)c1 (stereo not drawn)	?	-26.4%
CCC(=O)N1c2ccc(S(=O)(=O)CCC(=O)Nc3ccc(OC)cc3OC)cc2CC1C (stereo not drawn)	-9.5%	-8.1%
CO/N=C(\C(=O)O)c1csc(NN=C(C)C)n1	-3.6%	?
Cc1ccc(OCCSc2nc3ccccc3n2CCC(=O)O)c(C(C)C)c1	-8.4%	-10.8%
COc1cc(C2c3c(oc4cc(C)c(C)cc4c3=O)C(=O)N2CCCN2CCOCC2)ccc1O (stereo not drawn)	-9.9%	0.0%
CCc1ccc2cc(F)cc(F)c2n1	-6.4%	14.4%
COCCNc1nc(NCc2ccc(NC(C)=O)cc2)c2sc(-c3ccccc3)cc2n1	11.2µM*	?
O=C(COC(=O)CCS(=O)(=O)c1ccc(Cl)cc1)NCCc1ccc(Cl)cc1Cl	-14.4%	-14.5%
Cc1ccc(Cn2ccnc2SCC(=O)Nc2ccc3c(c2)OCO3)cc1	-11.7%	-9.3%
CC(C)c1ccc(NC(=O)c2ccc(F)c(S(=O)(=O)N3CCCCCC3)c2)cc1	-14.0%	-16.0%
COc1ccc(S(=O)(=O)N2CCCC(C(=O)N3CCOCC3)C2)cc1Cl (stereo not drawn)	-17.6%	-26.4%
COCC(C)NS(=O)(=O)c1ccc(C(=O)NC(Cc2ccccc2)c2ccccc2)cc1 (stereo not drawn)	-16.8%	-24.0%
CCOc1ccc(NC(=O)CCSc2nc(-c3ccc4c(c3)OCO4)cc(C(F)(F)F)n2)cc1	-2.2%	-6.0%
Nc1cccc(C(=O)N/N=C/c2ccsc2)c1	-11.7%	-22.1%
O=C(OCC(=O)N1CCc2ccccc21)c1cncc(Br)c1	-11.3%	i
CC1(C(=O)Nc2ccc3c(c2)OCO3)CCN1C(=O)Cc1cccs1 (stereo not drawn)	1.8%	-14.7%
O=C(CCC(=O)N1CC2CCCN2c2ccccc21)NCc1ccccc1 (stereo not drawn)	-12.5%	i
CCOc1cccc2cc(C(=O)OCC(=O)Nc3c(C)cccc3CC)c(=O)oc12	-12.7%	-1.4%

# High-throughput results deposited in PubChem BioAssay by National Center for Advancing Translational Sciences (NCATS).
